High-throughput results as filed in PubChem BioAssay.
FGF22 binding: FGF22 (human) thermal shift binding; recombinant FGF22 thermal shift, SYPRO orange fluorescence; percent of sucrose octasulfate shift, DMSO zero; calls only at 9.99 µM; actives 1.5% (n = 340,000);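 active = melting point raised past a set limit in the mean and every replicate; three in four hits are not shown here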
Target sequence (Q9HCT0 whole entry, looked up): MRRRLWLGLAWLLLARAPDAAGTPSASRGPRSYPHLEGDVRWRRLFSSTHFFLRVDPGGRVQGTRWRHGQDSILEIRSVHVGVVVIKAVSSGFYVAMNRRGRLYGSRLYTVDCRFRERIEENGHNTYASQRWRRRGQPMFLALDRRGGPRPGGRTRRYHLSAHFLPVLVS
rRNA inh HTS: inhibitors of bacterial rRNA selective over humanized ribosomes; AID 720706; E. coli WT GFP vs humanized-ribosome RFP mutants, fluorescence, 24 h; stronger effect = lower value; DMSO median 0, no signal -100; actives 1.6% (n = 350,000); GFP signal change (wild-type ribosome), % (concentration not given with the values);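 active = significant combined selectivity score with lowered wild-type GFP, culture density cut under 30%, mutant RFP and density less affected; inactive = any of these conditions unmet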; also: one replicate is shown; some compounds called inactive have numbers as strong as hits
rRNA inh HTS OD600: recorded beside rRNA inh HTS, whose call it bears; OD600 change, %; measured here: OD600 growth;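 optical density of the mix in the first replicate; 0 = DMSO median and -100 = no signal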
rRNA inh HTS RFP: recorded beside rRNA inh HTS, whose call it bears; RFP signal change, %; measured here: RFP humanized mutant strains;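 first replicate; 0 = DMSO median and -100 = no signal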
An asterisk follows results filed as active; i = inactive; + = active, no number; ! = not confirmed by another sample. Not all compounds are listed. The share of hits here may be higher or lower than overall.

structure	FGF22 binding	rRNA inh HTS	rRNA inh HTS OD600	rRNA inh HTS RFP
C[C@@H]1CN([C@H](C)CO)C(=O)c2cccc(NC(=O)Nc3ccc(F)cc3)c2O[C@@H]1CN(C)C(=O)Nc1cccc2ccccc12	i	1	-7	1.7
COc1ccc(NC(=O)Nc2ccc3c(c2)C(=O)N([C@@H](C)CO)C[C@@H](C)[C@H](CN(C)C(=O)Nc2cccc4ccccc24)OCCCC[C@H](C)O3)cc1	i	4	9	-1.3
CCNC(=O)C[C@H]1CC[C@@H]2[C@H](COc3ccc(NC(=O)C4CCCCC4)cc3C(=O)N2C)O1	i	1	6	1.2
CS(=O)(=O)N1CC(=O)N2[C@H](C1)[C@H](c1ccc(C#Cc3ccc(F)cc3)cc1)[C@@H]2CO	i	-2	-5	3.4
Cc1noc(C)c1S(=O)(=O)N(C)C[C@H]1Oc2ccc(NS(=O)(=O)c3ccc(Cl)cc3)cc2CC(=O)N([C@@H](C)CO)C[C@H]1C	i	-1	-4	0.5
C[C@H]1CCCCO[C@H](CN(C)C(=O)Nc2ccccc2)[C@@H](C)CN([C@@H](C)CO)C(=O)c2cc(NC(=O)Nc3ccc(F)cc3)ccc2O1	i	-1	-4	0.6
C[C@@H]1CN([C@H](C)CO)C(=O)c2cccc(NS(=O)(=O)c3ccccc3)c2O[C@@H]1CN(C)Cc1ccc(C(=O)O)cc1	i	4	5	-2.2
COc1cccc(-c2ccc([C@@H]3[C@@H](CO)N4CCCCN(C(=O)c5ccc6c(c5)OCO6)C[C@H]34)cc2)c1	i	-57	-76	-11
C[C@H]1CCCCO[C@H](CN(C)C(=O)CCC(F)(F)F)[C@@H](C)CN([C@@H](C)CO)C(=O)c2cc(NS(=O)(=O)c3ccccc3)ccc2O1	i	-1	-4	3.3
C[C@@H]1CN([C@@H](C)CO)C(=O)c2cc(NC(=O)CCC(F)(F)F)ccc2O[C@H]1CN(C)C(=O)Nc1cccc2ccccc12	i	-2	-7	1.3
C[C@@H]1CN([C@H](C)CO)C(=O)c2cccc(NC(=O)c3ccc(-c4nccs4)cc3)c2O[C@@H]1CN(C)C(=O)Nc1ccccc1	+	-5	-17	0.5
O=C(NCC(F)(F)F)[C@@H]1[C@@H](CO)[C@@H]2Cn3c(cccc3=O)[C@H]1N2C(=O)C1CCCC1	i	-1	4	-1.3
C[C@H](O)C#Cc1ccc2c(c1)O[C@@H](CN(C)C(=O)C1CC1)[C@H](C)CN([C@H](C)CO)S2(=O)=O	i	2	-2	-1.6
O=C(CN1CCOCC1)N1CCCCN2[C@H](C1)[C@@H](c1ccc(-c3ccccc3F)cc1)[C@@H]2CO	i	1	-9	-2.6
COCC(=O)N(C)C[C@H]1Oc2cc(-c3ccc(OC)cc3)ccc2S(=O)(=O)N([C@H](C)CO)C[C@H]1C	i	-4	-4	-3.5
C[C@H]1CN([C@@H](C)CO)C(=O)c2cc(C#CC3(O)CCCC3)cnc2O[C@@H]1CN(C)C(=O)CN(C)C	i	6	6	-0.2
N#C[C@H]1[C@@H](c2ccc(C#CCC3CCCC3)cc2)[C@@H](CO)N1C(=O)c1ccccn1	i	-8	-42	1.7
CO[C@@H]1CN(C)C(=O)c2cc(NC(=O)c3ccc4c(c3)OCO4)ccc2OC[C@@H](C)N(CCC(F)(F)F)C[C@H]1C	i	-5	-5	-1.2
COc1ccc2c3c([nH]c2c1)[C@H](CO)NCC31CCN(C(=O)c2ccccc2)CC1	i	-3	8	-4.2
C[C@H](CO)N1C[C@H](C)[C@H](CN(C)C(=O)NC2CCCCC2)Oc2ncc(/C=C/c3ccccc3)cc2C1=O	i	-2	-10	5.7
Cc1ccc(S(=O)(=O)N(C)C[C@@H]2OCCCC[C@@H](C)Oc3ccc(NS(=O)(=O)c4cn(C)cn4)cc3C(=O)N([C@H](C)CO)C[C@@H]2C)cc1	i	-2	6	1.3
O=C(C[C@H]1CC[C@@H]2[C@H](COC[C@H](O)CN2Cc2cc(F)ccc2F)O1)N[C@H]1CCN(Cc2ccccc2)C1	i	3	-3	0.5
C[C@H]1CN([C@@H](C)CO)C(=O)c2cc(NC(=O)c3ccncc3)ccc2O[C@@H]1CN(C)S(=O)(=O)c1cn(C)cn1	+	5	7	-0.8
COc1cccc(-c2ccc([C@H]3[C@@H](CO)N4CCCCN(S(=O)(=O)c5cccs5)C[C@H]34)cc2)c1	i	-34	-33	-1.3
CCCNC(=O)[C@H]1[C@H](CO)[C@H]2Cn3c(cccc3=O)[C@@H]1N2Cc1ccccc1	i	2	6	-0.8

Further results
structure	FGF22 binding	rRNA inh HTS	rRNA inh HTS OD600	rRNA inh HTS RFP
C[C@@H]1CN([C@H](C)CO)C(=O)Cc2cc(NS(=O)(=O)c3cn(C)cn3)ccc2O[C@H]1CN(C)Cc1ccc(C(=O)Nc2ccccc2N)cc1	i	1	14	-0.3
CO[C@H]1CC[C@@H]2CCN(C)C(=O)[C@@H](C)N(C)C(=O)c3cc(C#N)ccc3OC[C@@H]1O2	i	1	9	4.8
COCC#Cc1cnc2c(c1)C(=O)N([C@H](C)CO)C[C@H](C)[C@H](CN(C)C(=O)C1CC1)O2	i	7	14	-5.2
C[C@@H]1CN([C@@H](C)CO)C(=O)Cc2cc(NC(=O)Cc3cn(C)c4ccccc34)ccc2O[C@H]1CN(C)CC1CCCCC1	i	0	-37	17
CC(C)NC(=O)N1C[C@H]2[C@@H](c3ccccc31)[C@@H](CO)N2C(=O)c1ccc(F)cc1	i	3	9	-5.4
COCC(=O)NC[C@@H]1[C@H](c2ccccc2)[C@@H](CO)N1C(C)=O	i	0	9	-2.5
O=C(C[C@H]1C=C[C@H](NS(=O)(=O)c2ccc(F)cc2)[C@@H](CO)O1)NCCc1ccncc1	i	2	9	-0.7
Cc1noc(C)c1NC(=O)N1C[C@@H](O)COC[C@@H]2O[C@H](CC(=O)NCC3CCCCC3)CC[C@H]21	i	3	7	-5.6
CS(=O)(=O)N1CC2(C1)[C@@H](c1ccccc1)[C@@H](CO)N2Cc1ccccc1	i	-5	3	0.4
CC(C)C(=O)Nc1ccc2c(c1)C(=O)N(C)[C@@H]1CC[C@H](CC(=O)NCc3ccccc3F)O[C@H]1CO2	i	0	-2	0.8
O=C(c1cccnc1)N1CC2(C1)[C@@H](c1ccccc1)[C@@H](CO)N2Cc1ccncc1	i	1	3	-2.3
Cc1ccc(S(=O)(=O)Nc2cccc3c2O[C@H](CN(C)S(=O)(=O)c2ccc(F)cc2)[C@@H](C)CN([C@@H](C)CO)C3=O)cc1	i	-1	16	1.1
O=C(C[C@H]1C[C@H]2c3cc(NC(=O)c4cccnc4)ccc3O[C@H]2[C@@H](CO)O1)NCc1ccccn1	i	3	5	-1.0
C[C@H]1CN([C@@H](C)CO)C(=O)c2cc(NS(=O)(=O)c3ccc(F)cc3)ccc2O[C@H]1CN(C)Cc1ccc(Cl)c(Cl)c1	i	0	-22	5.0
C[C@@H]1CN([C@H](C)CO)C(=O)c2cc(-c3ccc(F)cc3)cnc2O[C@@H]1CN(C)CC1CCCC1	i	3	3	-2.7
O=C(N[C@H]1CC[C@@H](CCn2cc(-c3ccc(F)cc3)nn2)O[C@H]1CO)c1cnccn1	i	1	1	-0.2
Cc1ccccc1-c1ccc2c(c1)O[C@@H](CN(C)CC1CC1)[C@@H](C)CN([C@@H](C)CO)S2(=O)=O	i	5	8	-0.5
O=C(C[C@@H]1CC[C@@H]2[C@H](COC[C@H](O)CN2C(=O)c2ccccc2F)O1)NCc1ccc(Cl)cc1	i	4	-1	-0.6
O=C(C1CCC1)N1CC(=O)N2[C@H](CO)[C@@H](c3ccc(Br)cc3)[C@@H]2C1	i	-1	2	-1.8
C[C@@H]1CCCCO[C@@H](CN(C)C(=O)NC2CCCCC2)[C@@H](C)CN([C@@H](C)CO)C(=O)c2cc(NC(=O)CCC(F)(F)F)ccc2O1	i	3	2	-0.2
CC(C)C#Cc1cnc2c(c1)C(=O)N([C@@H](C)CO)C[C@@H](C)[C@@H](CN(C)Cc1ccccc1)O2	i	-1	8	-0.1
O=C(C[C@H]1CC[C@H]2[C@@H](COC[C@@H](O)CN2S(=O)(=O)c2ccc(F)cc2)O1)NCc1ccncn1	i	3	7	0.6
C[C@@H]1CN([C@@H](C)CO)C(=O)Cc2cc(NC(=O)Nc3ccccc3)ccc2O[C@@H]1CN(C)S(=O)(=O)c1cn(C)cn1	i	1	5	-0.7
CC(C)(C)[S@](=O)N1Cc2cc(C(=O)N3CCOCC3)nc(-c3cccc(-c4ccc(C#N)cc4)c3)c2[C@@H]1CCO	i	5	12	8.2
C[C@@H]1CN([C@H](C)CO)C(=O)c2c(c3ccccc3n2C)-c2ccccc2CO[C@@H]1CN(C)C(=O)CCN(C)C	i	-19*!	-1.5*!	6.7*!

Sorted by heavy-atom count (highest first): part of the list above
structure	FGF22 binding	rRNA inh HTS	rRNA inh HTS OD600	rRNA inh HTS RFP
C[C@@H]1CCCCO[C@@H](CN(C)C(=O)NC2CCCCC2)[C@@H](C)CN([C@@H](C)CO)C(=O)c2cc(NC(=O)CCC(F)(F)F)ccc2O1	i	3	2	-0.2
O=C(C[C@H]1CC[C@@H]2[C@H](COC[C@H](O)CN2Cc2cc(F)ccc2F)O1)N[C@H]1CCN(Cc2ccccc2)C1	i	3	-3	0.5
Cc1ccccc1-c1ccc2c(c1)O[C@@H](CN(C)CC1CC1)[C@@H](C)CN([C@@H](C)CO)S2(=O)=O	i	5	8	-0.5

(cont.)
structure	FGF22 binding	rRNA inh HTS	rRNA inh HTS OD600	rRNA inh HTS RFP
Cc1ccc(S(=O)(=O)Nc2ccc3c(c2)CC(=O)N([C@@H](C)CO)C[C@H](C)[C@@H](CN(C)Cc2ccc(Oc4ccccc4)cc2)O3)cc1	i	4	4	2.3
CO[C@@H]1CN(C)C(=O)c2cc(NC(=O)C3CC3)ccc2OC[C@H](C)N(C(=O)CN(C)C)C[C@@H]1C	i	1	4	0.9
COCC(=O)N1[C@H](C#N)[C@@H](c2ccc(C3=CCCCC3)cc2)[C@@H]1CO	i	1	1	2.9
O=C(CC1CC1)N1CC2(C1)[C@H](c1ccccc1)[C@H](CO)N2Cc1ccccn1	i	-3	2	0.4
C[C@H]1CN([C@@H](C)CO)C(=O)Cc2cc(NC(=O)Nc3ccc(F)cc3)ccc2O[C@@H]1CN(C)Cc1ccc(-c2ccccc2)cc1	i	2	2	9.7
Cc1ccc(S(=O)(=O)N[C@@H]2C=C[C@@H](CC(=O)N3CCC(Cc4ccccc4)CC3)O[C@H]2CO)cc1	i	-12	-58	38
O=C(C(=O)N1CCC(CNC(=O)c2cccnc2Cl)CC1)c1cccs1	i	11	14	1.6
CC(C)CC#Cc1cnc2c(c1)C(=O)N([C@H](C)CO)C[C@@H](C)[C@@H](CN(C)S(=O)(=O)c1cn(C)cn1)O2	i	0	1	1.3
CCCC(=O)Nc1ccc2c(c1)OC[C@H](C)N(C(=O)c1ccncc1)C[C@H](C)[C@@H](OC)CN(C)C2=O	i	2	-3	0.3
CC(C)CC#Cc1cnc2c(c1)C(=O)N([C@H](C)CO)C[C@H](C)[C@H](CN(C)C(=O)Cc1cccnc1)O2	i	-2	2	-2.1
C/C=C/c1ccc2c(c1)O[C@@H](CN(C)Cc1ccccn1)[C@@H](C)CN([C@@H](C)CO)S2(=O)=O	i	-3	-6	3.5
CCCNC(=O)N(C)C[C@@H]1Oc2cc(C3=CCCCC3)ccc2S(=O)(=O)N([C@H](C)CO)C[C@H]1C	i	0	-15	1.4
C[C@@H]1CN([C@H](C)CO)C(=O)c2cccc(NC(=O)C3CCOCC3)c2O[C@H]1CN(C)S(=O)(=O)c1ccc(F)cc1	i	1	2	-1.5
Cc1noc(C)c1NC(=O)N(C)C[C@@H]1Oc2ccc(NS(=O)(=O)c3ccc(Cl)cc3)cc2CC(=O)N([C@H](C)CO)C[C@H]1C	i	3	7	1.9
COCC(=O)Nc1ccc2c(c1)[C@H]1C[C@H](CC(=O)N(C)C)O[C@H](CO)[C@H]1O2	i	2	-6	-5.0
O=C(Cc1ccccn1)NCC[C@@H]1CC[C@@H](NS(=O)(=O)c2ccccc2)[C@H](CO)O1	i	6	5	1.8
C[C@@H]1CN([C@@H](C)CO)C(=O)c2cc(/C=C/c3ccccc3)cnc2O[C@@H]1CN(C)Cc1ccccc1	i	4	-20	19
C[C@@H]1CN([C@@H](C)CO)C(=O)c2cccc(NC(=O)C3CC3)c2O[C@H]1CN(C)Cc1ccc(-c2ccccc2)cc1	i	1	11	-0.6
C[C@@H]1CN([C@@H](C)CO)C(=O)c2cc(C#CCC3CCCC3)cnc2O[C@@H]1CN(C)C(=O)c1cnccn1	i	3	4	-1.1
CO[C@H]1CN(C)C(=O)c2cc(NC(=O)C3CCC3)ccc2OC[C@@H](C)NC[C@@H]1C	i	1	0	-1.4

An excerpt from above, limited to rRNA inh HTS RFP, rRNA inh HTS OD600 and rRNA inh HTS:
compound	rRNA inh HTS RFP	rRNA inh HTS OD600	rRNA inh HTS
O=C(Cc1ccccn1)NCC[C@@H]1CC[C@@H](NS(=O)(=O)c2ccccc2)[C@H](CO)O1	1.8	5	6
O=C(CC1CC1)N1CC2(C1)[C@H](c1ccccc1)[C@H](CO)N2Cc1ccccn1	0.4	2	-3

Sorted by the number under rRNA inh HTS OD600 (falling): three from the list above.
structure	FGF22 binding	rRNA inh HTS	rRNA inh HTS OD600	rRNA inh HTS RFP
O=C(Cc1ccccn1)NCC[C@@H]1CC[C@@H](NS(=O)(=O)c2ccccc2)[C@H](CO)O1	i	6	5	1.8
CC(C)CC#Cc1cnc2c(c1)C(=O)N([C@H](C)CO)C[C@@H](C)[C@@H](CN(C)S(=O)(=O)c1cn(C)cn1)O2	i	0	1	1.3
C[C@@H]1CN([C@@H](C)CO)C(=O)c2cc(/C=C/c3ccccc3)cnc2O[C@@H]1CN(C)Cc1ccccc1	i	4	-20	19
